Screening data: PubChem BioAssay, several laboratories
Rce1 inhib = yeast Rce1p protease inhibitors, primary screen, biochemical, fluorescence, cell-free homogeneous; CAAX prenyl protease 2 (Saccharomyces cerevisiae (strain ATCC 204508 / S288c)), Q03530; yeast membranes, quenched prenylated peptide cleavage fluorescence; calls only; 290,000 tested, 0.27% active; AID 2563, 2010;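 active = fall in fluorescence gain of 50% or more versus controls, with final raw signal at or below 3038400; inconclusive = same 50% fall but final raw signal above 3038400; inactive = fall in fluorescence gain under 50%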;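 also: plate controls were neutral control wells for no effect and wells lacking membranes for full effect; tested at 10 µM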
Target sequence (Q03530 whole entry, looked up): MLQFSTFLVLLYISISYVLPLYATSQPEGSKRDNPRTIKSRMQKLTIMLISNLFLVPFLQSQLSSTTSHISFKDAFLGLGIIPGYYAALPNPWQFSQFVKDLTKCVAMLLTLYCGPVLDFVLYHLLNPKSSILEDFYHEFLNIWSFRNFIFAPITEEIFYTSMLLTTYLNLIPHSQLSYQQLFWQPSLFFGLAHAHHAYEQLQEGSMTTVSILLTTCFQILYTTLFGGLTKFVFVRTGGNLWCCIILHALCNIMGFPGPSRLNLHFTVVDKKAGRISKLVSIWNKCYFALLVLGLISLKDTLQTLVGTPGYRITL
Env fusion inh = inhibitors of HIV-1 Env-driven cell-cell fusion, primary screen, HeLa-JRFL effector, CEM21 target cells, luciferase; 360,000 tested, 1.1% active; AID 651610, 2012; inhibition, % at 12.3 µM;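 active = mean replicate inhibition score of at least 50 and every replicate individually at or above 50; inconclusive = only one of the two criteria met; inactive = mean below 50 and not all replicates reaching 50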;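 also: 0% = plate neutral controls and 100% = maraviroc near 300 nM; one replicate is shown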
MT1-MMP act inh = blockers of MT1-MMP proenzyme processing, primary screen, HT1080 RFP-PRO-GFP cells, GFP/RFP fluorescence | Matrix metalloproteinase-14 (Homo sapiens), P50281 | GFP/RFP ratio fluorescence, overnight; percent of plate control window, DMSO zero | GFP/RFP ratio change, % at 20 µM | 360,000 tested, 0.061% active;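 active = GFP/RFP ratio change of at least 30% with cell ATP level not reduced by more than half and red fluorescence within 50% of control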; also: strong numbers were not always called active
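Test system: HT1080 cells expressing an RFP-PRO-GFP fluorescent reporter construct / Compound dosing: single-point 20 µM compound, 1% DMSO / Schedule: cells overnight before dosing, compound overnight, 37 °C, 5% CO2 / Evaluation: GFP/RFP fluorescence ratio / Control set: DMSO and RFP-L50D-GFP cell wells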
CSC inhib = cancer stem cell viability inhibitors, primary screen, luminescence; cancer stem cell-like cells viability; inhibition, % at 7.5 µM; 300,000 tested, 1.1% active; AID 2717, 2010;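 active = mean at 75% or more and at least half the replicates too; inconclusive = mean and replicates disagree; tested in HMLE shEcad cells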;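 also: 0% = median of negative and 100% = median of positive control wells; the first replicate is given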
eIF4H FP inh = human eIF4H binding inhibitors, primary screen, translation initiation inhibitor project, biochemical, uHTS, fluorescence polarization; eIF4H fluorescence polarization binding assay; 290,000 tested, 0.94% active; AID 2012, 2009; inhibition, % at 35 µM;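 active = 50% or more with normal probe brightness, or confirmed in later tests; inconclusive = above 50% with abnormal brightness, or retests that disagree; inactive = below 50% or failed in later tests; about a fifth of its hits are not listed in these tables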;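 also: calls also rest on retests at 20 µM and on dose response follow-up; 0% = protein and probe with vehicle and 100% = probe without protein; strong numbers were not always called active; many hits fall short of the cut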
PABP FP inh = PABP poly(A) RNA binding inhibitors, primary screen, biochemical, fluorescence polarization, uHTS; Polyadenylate-binding protein 1 (Homo sapiens), P11940; inhibition, % at 35 µM; 290,000 tested, 1% active; AID 2014, 2009;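 active = 50% or more with normal probe brightness, or confirmed in later tests; inconclusive = above 50% with abnormal brightness, or retests that disagree; inactive = below 50% or failed in later tests; about a fifth of its hits are not listed in these tables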;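 also: calls also rest on retests at 20 µM and on dose response follow-up; controls were probe without protein and protein plus probe with vehicle; some compounds called inactive have numbers as strong as hits; many hits fall short of the cut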
Target sequence (P11940 whole entry, looked up): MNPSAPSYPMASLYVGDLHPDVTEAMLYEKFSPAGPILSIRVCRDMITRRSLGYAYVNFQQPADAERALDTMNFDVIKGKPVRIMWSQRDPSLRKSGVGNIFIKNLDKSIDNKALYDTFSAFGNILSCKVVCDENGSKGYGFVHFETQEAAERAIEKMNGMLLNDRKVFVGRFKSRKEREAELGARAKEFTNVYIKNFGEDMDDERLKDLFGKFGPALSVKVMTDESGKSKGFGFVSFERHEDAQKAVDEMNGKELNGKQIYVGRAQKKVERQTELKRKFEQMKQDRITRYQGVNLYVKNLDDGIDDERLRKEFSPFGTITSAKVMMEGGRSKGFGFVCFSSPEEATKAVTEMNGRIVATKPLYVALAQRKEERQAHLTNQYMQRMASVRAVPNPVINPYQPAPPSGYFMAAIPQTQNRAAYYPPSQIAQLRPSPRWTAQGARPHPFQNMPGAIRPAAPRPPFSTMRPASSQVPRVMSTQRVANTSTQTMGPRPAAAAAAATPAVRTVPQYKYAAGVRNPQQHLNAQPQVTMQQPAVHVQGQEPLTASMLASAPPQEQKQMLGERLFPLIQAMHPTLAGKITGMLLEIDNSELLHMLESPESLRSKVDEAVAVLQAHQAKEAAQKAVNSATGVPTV
UUG fidelity = modulators of yeast start codon fidelity, primary screen, whole organism, S. cerevisiae, single point, plate reader | S. cerevisiae UUG-firefly luciferase reporter, luminescence/redox ratio | activity score, % at 18.7 µM | 350,000 tested, 0.13% active;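 active = replicate mean at a twofold rise or more, about +100% in these data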;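 also: firefly luciferase made from a UUG start codon reports start codon fidelity; reporter light over untreated wells divided by growth signal over untreated wells; some hits fall short of that in this replicate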
eIF4H FP inh retest = recorded beside eIF4H FP inh, whose call it bears; inhibition, %; compound at 20 µM; confirmation average;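 mean of two retest wells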
PABP FP inh retest = recorded beside PABP FP inh, whose call it bears; inhibition, %; compound at 20 µM; confirmation repeats;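 mean of two retest wells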
MT1-MMP act inh RFP = further read-out of MT1-MMP act inh, marked with its call; RFP signal change, %; measured here: RFP expression control read;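 0 = vehicle wells; hits needed this value within 50% of zero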
Active calls of the source: *; i = inactive; u = inconclusive; x = no result given.

SMILES	Rce1 inhib	Env fusion inh	MT1-MMP act inh	MT1-MMP act inh RFP	CSC inhib	eIF4H FP inh	PABP FP inh	UUG fidelity	others
CCN1C2=C(C(=O)CCC2)C(c2ccc(O)c(Br)c2)C2=C1CCCC2=O	i	-7	-9	4	-1	42	59	-18	eIF4H FP inh retest=40;PABP FP inh retest=46
O=c1cc(O)c2ccc(O)cc2o1	i	x	-7	-3	0	13	13	-16
Cc1cccc(-c2nnc(SCC(=O)N3CCOCC3)o2)c1	i	-9	2	4	-1	4	9	-21
Cc1cc(C)c(S(=O)(=O)NCCOc2ccccc2)c(C)c1-n1cnnn1	i	1	5	3	x	-2	-4	-9
O=C1NC(=Nc2ccccc2)S/C1=C\c1cccn1-c1ccccc1	i	x	-8	-17	51	-2	5	-10
CC(CNS(=O)(=O)c1ccc(Cl)cc1)n1cncn1 (stereo not given)	i	-6	-2	5	-2	6	10	-13
O=C(COC(=O)/C=C/c1ccc(F)cc1)NC1CCCCCC1	x	-14	2	5	0	x	x	-12
COc1cc([N+](=O)[O-])ccc1NC(=O)CCCOc1ccccc1	i	-8	-8	-1	3	14	4	-2
CC(C)CNC(=O)c1cccc(NC(=O)c2ccc(Cl)c([N+](=O)[O-])c2)c1	i	x	2	-1	-5	-5	-8	x
CC(=O)c1ccc(NC(=O)C2CCCN2S(=O)(=O)c2ccc(C)cc2)cc1 (stereo not given)	i	1	3	2	-4	-7	-1	0
FC(F)(F)c1ccc(N2CCN(Cc3ccc4c(c3)OCO4)CC2)nc1	i	3	4	-2	31	0	7	4
CCN1C(=NCCOC)N[C@@H](c2cccc(C(F)(F)F)c2)C(C(=O)OC)=C1C	x	6	-6	0	-15	x	x	1
Cc1ccc(NC(=O)Nc2cccc3ccccc23)cc1	i	1	1	2	6	-12	4	-14
O=C(Nc1nnc(SCc2ccc(F)cc2)s1)c1ccc2ncsc2c1	i	-55	8	0	x	-15	-5	x
CCN(CC(=O)Nc1ccccc1C(F)(F)F)C(=O)CCc1c(C)[nH]c(=O)c(C#N)c1C	i	22	4	7	-16	4	4	-7
O=C(CSc1nnc(CNC(=O)c2ccccc2F)o1)c1ccccc1	i	-36	-14	-16	-4	4	-14	-11
COc1ccc(C(=O)NCc2ccccc2)cc1S(=O)(=O)N1CCCc2ccccc21	i	x	-8	-15	7	1	9	0
O=C(Nc1ccc2c(c1)OCO2)c1ccc(Br)c(S(=O)(=O)N2CCCC2)c1	i	53	-4	-15	-4	4	12	3
O=C(COC(=O)C1CC(=O)N(CCc2ccccc2)C1)c1ccc[nH]1 (stereo not given)	x	12	0	-1	-11	x	x	-3
Cc1ccnc(NS(=O)(=O)c2ccc(NC(=O)CSc3nc(-c4ccccc4)cc(=O)[nH]3)cc2)n1	i	-3	-2	2	5	10	11	-24
O=C(c1cc(-c2ccccc2Cl)on1)N1CCCC1	i	-35	-5	-5	13	13	8	-60
CC12CCC(C(=O)NNc3ccc([N+](=O)[O-])cc3)(CC1=O)C2(C)C (stereo not given)	x	18	0	-7	-11	-4	2	x
Cc1cccc(NC(=O)c2nc[nH]c2C(=O)N[C@@H](C)C(=O)OCc2ccccc2)c1	i	-7	5	0	-8	10	-4	-12
COC(=O)c1ccc2c(=O)n(CCCCCC(=O)NCc3ccccc3)c(=O)[nH]c2c1	i	13	1	-1	-9	-10	-37	-25
C/C(=N\NC(=O)Cn1nnc2ccccc21)c1ccco1	i	18	-2	-1	-4	2	-1	-8
Cc1ccc2c(Cn3cc(C(F)(F)F)cc(Cl)c3=O)cc(=O)oc2c1	i	1	x	x	-6	-2	5	x
COc1cccc(C(=O)N2CCCN(C)CC2)c1OC	i	1	-3	2	57	6	-1	-9
CCOc1ccsc1C(=O)NNC(=O)c1ccco1	i	0	1	4	-13	-2	-7	-23
Cc1cccc(-n2ccnc2CN2CCN(C(C)C)C(CCO)C2)c1 (stereo not given)	i	1	-5	0	-12	-2	-13	-22
O=C(O)c1ccc(-n2cccc2)cc1O	i	4	-8	-4	-11	2	4	-12

No new results follow: 2 of the compounds above.
SMILES	Rce1 inhib	Env fusion inh	MT1-MMP act inh	MT1-MMP act inh RFP	CSC inhib	eIF4H FP inh	PABP FP inh	UUG fidelity	others
Cc1cccc(-n2ccnc2CN2CCN(C(C)C)C(CCO)C2)c1 (stereo not given)	i	1	-5	0	-12	-2	-13	-22
O=C(O)c1ccc(-n2cccc2)cc1O	i	4	-8	-4	-11	2	4	-12

Next compounds follow:
SMILES	Rce1 inhib	Env fusion inh	MT1-MMP act inh	MT1-MMP act inh RFP	CSC inhib	eIF4H FP inh	PABP FP inh	UUG fidelity	others
Cc1ccnc(NC(=O)C2CCN(S(=O)(=O)c3ccc(C)c(C)c3)CC2)c1	i	-27	1	-3	x	x	x	x
COc1ccc(CCNC(=O)C2CCN(S(=O)(=O)c3ccc(NC(C)=O)cc3)CC2)cc1OC	i	-17	1	2	-7	-7	15	-13
CCN(CC)S(=O)(=O)c1ccc2nc(COC(=O)c3n[nH]c4ccccc34)[nH]c2c1	i	-23	5	9	-8	-13	-1	-6
COc1ccc(C(=O)Nc2ccc(C)cc2C(=O)c2ccccc2)c(OC)c1	i	-11	-4	-4	38	-12	0	x
COc1ccc(OC)c(NS(=O)(=O)c2cc(OC)ccc2OC)c1	i	-39	4	0	x	2	-4	-21
COCCN=C1N[C@@H](c2ccc(Br)cc2)C(C(=O)OC)=C(C)N1Cc1ccccc1	i	x	-3	2	26	1	36	-8
CN(C)S(=O)(=O)c1cccc(C(=O)N2CCN(Cc3ccccc3)CC2)c1	i	-11	-1	-3	-11	-9	6	-14
CC(C)(C)OC(=O)C[C@@H]1C/C=C\C[C@H](CC(=O)N(CCO)Cc2ccccc2)C(=O)N[C@@H](Cc2ccccc2)COC1=O	x	-68	-1	-1	-19	x	x	8
CCCCn1c(N)c(N(CCC(C)C)C(=O)COC(=O)/C=C/c2ccc(F)cc2)c(=O)[nH]c1=O	x	15	0	0	-7	x	x	-3
CC1=N/C(=C/c2cc(Br)cc(Br)c2O)C(=O)O1	i	-1	-1	6	3	-8	5	-4
Cc1ccc(CNC(=O)COc2ccc(C(=O)c3ccc(F)cc3)cc2)cc1	i	-5	-3	-14	56	-9	4	x
COC(=O)c1cc(Br)c(=O)n(Cc2ccc(OC)c(OC)c2)c1	i	x	-2	-7	-10	-9	0	-7
COc1cc2cnc(CCCC#N)cc2cc1OC	x	-67	7	7	-14	x	x	-3
COc1cc(C(=O)N/N=C/c2ccc(OC(=O)c3ccccc3Cl)c(OC)c2)ccc1O	i	x	8	-1	-15	-3	0	-2
COc1ccc2nc(N(CCN(C)C)C(=O)/C=C/c3cccs3)sc2c1	i	-1	-1	-12	14	-6	-14	x
O=C(O)CCN1C(=O)c2ccc(Oc3ccc([N+](=O)[O-])cc3)cc2C1=O	i	-3	-1	1	-2	-6	6	-15
CCN1CCCC1CNC(=O)C(=O)NC(C)C (stereo not given)	i	17	1	4	-4	-14	4	x
CCOC(=O)Cn1c(=O)c(-c2cc(Br)ccc2N)nc2ccccc21	i	20	-12	-6	-12	u	u	-10
COc1ccc2nc3sc(C(=O)NCCCN4CCc5ccccc5C4)cc3cc2c1	i	4	6	1	5	6	11	-5
COC(=O)c1ccc(NC(=O)COC(=O)C2CCC2)cc1	i	-6	-1	1	x	x	x	x
COc1cc(-c2nnn(CC(=O)NC3CCS(=O)(=O)C3)n2)ccc1OCc1ccccc1 (stereo not given)	i	x	1	-1	-2	-9	0	-22
Cc1c(C(=O)O)oc2ccc(S(=O)(=O)N3CCC(C)CC3)cc12	x	x	1	4	-18	-5	-2	-52
CCc1ccc(C(=O)COC(=O)C(CCSC)NC(=O)C23CC4CC(CC(C4)C2)C3)cc1 (stereo not given)	i	-2	2	-1	-10	-4	-11	x
CCN(CC)S(=O)(=O)c1ccc(NC(=S)Nc2ccccc2)cc1	i	-20	-4	-3	3	-4	7	x
O=C(NCCc1c[nH]c2ccccc12)/C(=C/c1cccnc1)NC(=O)c1ccco1	i	4	-2	6	4	-11	3	-15
O=C(C1CCN(C2CC(=O)N(c3ccc(F)cc3)C2=O)CC1)N1CCOCC1 (stereo not given)	i	x	-1	1	-17	5	-5	-7

Of the compounds above, these contain fluorine:
SMILES	Rce1 inhib	Env fusion inh	MT1-MMP act inh	MT1-MMP act inh RFP	CSC inhib	eIF4H FP inh	PABP FP inh	UUG fidelity	others
O=C(COC(=O)/C=C/c1ccc(F)cc1)NC1CCCCCC1	x	-14	2	5	0	x	x	-12
FC(F)(F)c1ccc(N2CCN(Cc3ccc4c(c3)OCO4)CC2)nc1	i	3	4	-2	31	0	7	4
CCN1C(=NCCOC)N[C@@H](c2cccc(C(F)(F)F)c2)C(C(=O)OC)=C1C	x	6	-6	0	-15	x	x	1
O=C(Nc1nnc(SCc2ccc(F)cc2)s1)c1ccc2ncsc2c1	i	-55	8	0	x	-15	-5	x
CCN(CC(=O)Nc1ccccc1C(F)(F)F)C(=O)CCc1c(C)[nH]c(=O)c(C#N)c1C	i	22	4	7	-16	4	4	-7
O=C(CSc1nnc(CNC(=O)c2ccccc2F)o1)c1ccccc1	i	-36	-14	-16	-4	4	-14	-11
Cc1ccc2c(Cn3cc(C(F)(F)F)cc(Cl)c3=O)cc(=O)oc2c1	i	1	x	x	-6	-2	5	x
CCCCn1c(N)c(N(CCC(C)C)C(=O)COC(=O)/C=C/c2ccc(F)cc2)c(=O)[nH]c1=O	x	15	0	0	-7	x	x	-3
Cc1ccc(CNC(=O)COc2ccc(C(=O)c3ccc(F)cc3)cc2)cc1	i	-5	-3	-14	56	-9	4	x
O=C(C1CCN(C2CC(=O)N(c3ccc(F)cc3)C2=O)CC1)N1CCOCC1 (stereo not given)	i	x	-1	1	-17	5	-5	-7
